Bioassay records from PubChem.
ClpP mod: qHTS Assay for Activators of ClpP; Potency, µM (titrated, usually from 57.5 µM), without a hit: at the top dose activity change, negative = active; hit rate 1.9% among 340,000; ATP-dependent Clp protease proteolytic subunit (Bacillus subtilis (strain 168)), P80244; purified B. subtilis ClpP, FRET peptide cleavage, 20 min; AID 651965, 2013; active = well fitted falling curve with a large enough effect; inconclusive = small, poorly fitted or top-dose-only effect; inactive = no such curve, though single readings can be large or run the other way; note: potency is the fitted concentration of half-maximal effect; the source files actives as falling curves though it sought activators and does not explain the sign; nearly all actives have a fitted effect of over 65% in size; many hits overshoot -100%
Target sequence (P80244 whole entry, looked up): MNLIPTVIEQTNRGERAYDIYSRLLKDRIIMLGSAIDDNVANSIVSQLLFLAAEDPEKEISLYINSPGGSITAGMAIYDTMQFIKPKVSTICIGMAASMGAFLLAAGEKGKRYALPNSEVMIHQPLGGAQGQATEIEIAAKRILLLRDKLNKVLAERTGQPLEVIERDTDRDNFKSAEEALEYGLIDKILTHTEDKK
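FRET quenching reversal measured ClpP activation: 10 microg/mL B. subtilis ClpP at pH 8 with the FRET-FV decapeptide, read at 430 nm after 320 nm excitation. The 20-min minus 0-min signal was scaled between DMSO/no-enzyme wells and ADEP (5.8 microM final).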
PINK1 modulator: changes PINK1 expression. PINK1 immunofluorescence, high-content cytometry, 24 h. Potency, µM (titrated, usually from 76.6 µM), for the others: top-dose activation (PINK1 increase), actives largely listed as activators. hit rate 0.2% among 410,000. AID 624263; active = well fitted activation curve with a large enough effect; inconclusive = small, poorly fitted or top-dose-only effect; inactive = flat fitted curve, though single readings scatter; cell line not stated here;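 note: potency is the fitted concentration of half-maximal effect; % of control where 0% means no effect; nearly all actives have a fitted effect of over 65% in size; a mitochondrial uncoupler was the plate control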
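Decision-based qHTS: stable cells, 24 h exposure to five compound concentrations, CCCP as control. Fixed cells stained for PINK1 plus nuclear, mitochondrial and cell markers, cytometer read.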
D2 ag: activates the human D2 dopamine receptor; P14416; DiscoveRx PathHunter D2 beta-arrestin, luminescence, 90 min; 100% = 57 uM dopamine signal; activation, % (test concentration not listed); hit rate 0.084% among 360,000; AID 624465; in the data active = activation above about 40%; inconclusive = about 15% to 40%; inactive = below about 15%; note: compound concentration not given in the record; the text of the record calls up to 30% inactive
Target sequence (P14416 whole entry, looked up): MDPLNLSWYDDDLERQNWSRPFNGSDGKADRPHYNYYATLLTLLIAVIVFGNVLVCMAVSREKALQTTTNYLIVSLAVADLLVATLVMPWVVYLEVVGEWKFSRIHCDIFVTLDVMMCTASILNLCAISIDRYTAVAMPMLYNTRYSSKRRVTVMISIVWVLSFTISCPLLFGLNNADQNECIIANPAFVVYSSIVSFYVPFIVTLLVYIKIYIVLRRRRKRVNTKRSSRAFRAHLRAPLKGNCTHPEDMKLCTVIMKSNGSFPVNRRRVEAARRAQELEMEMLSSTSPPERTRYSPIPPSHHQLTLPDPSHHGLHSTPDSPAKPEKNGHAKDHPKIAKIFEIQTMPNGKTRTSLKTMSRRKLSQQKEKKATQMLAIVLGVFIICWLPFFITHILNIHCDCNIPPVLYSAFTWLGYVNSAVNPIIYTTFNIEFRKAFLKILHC
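Agonist mode: compounds alone added to overnight-plated D2 PathHunter cells for 90 min at 37 C, with 57 uM final dopamine (EC100) defining full response. Beta-arrestin recruitment detected by chemiluminescent reagent, read after 1 h at ambient temperature.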
Sfp PPTase inh: blocks B. subtilis Sfp PPTase activity | hit rate 3.5% among 310,000 | Q9F4F7 | Potency, µM, for inactives: max response, negative = inhibition, usual class: inhibitors | AID 1490 | Biochemical Sfp PPTase activity, qHTS; active = well fitted inhibition curve with a large enough effect; inconclusive = small, poorly fitted or top-dose-only effect, or another doubt; inactive = no such curve, though single readings can be large or run the other way;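 note: the enzyme is Sfp with the accession as filed and its product quenches rhodamine fluorescence; potency is the fitted concentration of half-maximal effect; 0% = enzyme reaction without inhibitor and -100% = no enzyme wells; top concentration of the series not given in the record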
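Step 1, compound plus 15 nM Sfp-PPTase, 15 min, room temperature. Step 2, add rhodamine-CoA (5 uM) and BHQ-2-YbbR (12.5 uM). Step 3, read 525/598 nm fluorescence at 0 and 30 min.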
gsp agonist: agonists of gsp mutant (McCune-Albright syndrome). hit rate 0.13% among 340,000. AID 624287. gsp mutant cells, cAMP HTRF, 30 min; control for the full effect not named in the record. Potency, µM (doses to about 76.9 µM), without a hit: at the highest dose activation (cAMP increase), most hits filed as activators; active = well fitted activation curve with a large enough effect; inconclusive = small, poorly fitted or top-dose-only effect, or another doubt; inactive = no such curve, though single readings can be large or run the other way; cell line not stated here;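 note: phosphodiesterase inhibitor Ro 20-1724 added with compounds to block cAMP breakdown; potency is the fitted concentration of half-maximal effect; nearly all actives have a fitted effect of over 60% in size; about a fifth of the inactives were tested at one dose only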
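Cells stably selected in G418 were plated at 2000/well, grown 16-24 hr, then given compounds in DMSO with the PDE inhibitor […] (300 uM solution added) for 30 min at 37C; cAMP was read by HTRF.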
Menin-MLL FL inh: displaces fluorescein MLL peptide from human menin; FP activity change, % at 61.4 µM; Fluorescence polarization, fluorescein-MLL peptide displacement from menin; 290,000 tested, under 10 active; inconclusive = falling polarisation curve, or a change in total fluorescence; inactive = total fluorescence flat and polarisation flat or rising; no compound was filed as active; the % refers to the polarisation; negative = inhibition;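 note: % of control where 0% means no effect; inhibitors lower the polarisation; unlabelled MLL peptide was the positive control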
gsp antagonist: antagonizes gsp, the McCune-Albright syndrome mutation | gsp-mutant cells, cAMP HTRF, 30 min; control for the full effect not named in the record | hit rate 0.4% among 340,000 | Potency, µM (titrated, usually from 76.9 µM), for the others: top-dose activity change, negative = inhibition, hits mostly inhibitors; active = falling curve of any shape with a large fitted effect; inconclusive = falling curve, mostly with a smaller effect; inactive = flat or rising curve; cell line not stated here;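 note: intracellular cAMP measured with PDE inhibitor Ro 20-1724 present during compound exposure; potency is the fitted concentration of half-maximal effect; % is set by controls: 0 for no effect and ±100 for the full control effect; nearly all actives have a fitted effect of over 65% in size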
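HTRF cAMP measurement after 30 min RT detection following 30 min, 37C compound treatment alongside […] (added as 300 uM solution) in G418-selected cells seeded at 2000/well and grown 16–24 h.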
An asterisk follows results filed as active; [ ] = dose if it differs, or a comment.

`CS(=O)(=O)c1ccc2nc(NC(=O)c3ccc(S(=O)(=O)NCC4CCCO4)cc3)sc2c1` (stereo unspecified) gave ClpP mod 1.1%, PINK1 modulator 0.4%, D2 ag -18.7, Sfp PPTase inh -12.3%, gsp agonist 2.3%, Menin-MLL FL inh -1.0 and gsp antagonist -5.9%.
Screening C=CCn1c(SCC(=O)NC(=O)NCC(C)C)nnc1C1CCCCC1 returned ClpP mod 0.5%, PINK1 modulator -3.7%, D2 ag -3.2, Sfp PPTase inh 11.1%, gsp agonist 19.9%, Menin-MLL FL inh -3.9 and gsp antagonist -8.4%.
For COc1cccc(CNc2nc(NC(C)C)nc3ccsc23)c1 the results were ClpP mod -19.3%, PINK1 modulator 0.7% and D2 ag -7.0.
`O=C(O)c1cccc(N2C(=O)c3ccc4c5c(ccc(c35)C2=O)C(=O)N(c2cccc(C(=O)O)c2)C4=O)c1` gave PINK1 modulator 0.3%, D2 ag -3.8, Sfp PPTase inh -1.8%, gsp agonist -5.6%[15.4 µM], Menin-MLL FL inh -9.5 and gsp antagonist -16.5%.
Screening CCOC(=O)c1ccc(NC(=O)CCNS(=O)(=O)c2ccc3c(c2)oc(=O)n3C)cc1 returned ClpP mod -13.4%, PINK1 modulator 5.1%[38.3 µM], D2 ag -1.1, Sfp PPTase inh 10.7%, gsp agonist 2.0%, Menin-MLL FL inh 1.3 and gsp antagonist -1.8%.
`Brc1ccc2nc(C3CCCCC3)c(Cc3ccccc3)n2c1` gave ClpP mod 2.5%, PINK1 modulator 10.1% and D2 ag -4.0.
For O=C(Nc1c2c(nc3ccccc13)CCCC2)c1ccccc1Cl the results were PINK1 modulator 5.1%, D2 ag 3.9, Sfp PPTase inh 34.4%[activator], gsp agonist -1.1%[15.4 µM], Menin-MLL FL inh 2.5 and gsp antagonist -12.1%.
CN(Cc1ccc(OC(F)F)cc1)C(=O)c1ccccc1Sc1ccccc1C#N was read as ClpP mod -5.5%, PINK1 modulator -1.9%, D2 ag -2.1, gsp agonist -0.5% and gsp antagonist -17.9%.
`COc1ccccc1-c1nc2n(n1)C(c1cccs1)C(C(=O)Nc1cccnc1)=C(C)N2` (stereo unspecified) gave ClpP mod -2.8%, PINK1 modulator -0.8%[38.3 µM], D2 ag 0.8, Sfp PPTase inh 9.0%, gsp agonist -2.2%, Menin-MLL FL inh 5.2 and gsp antagonist -16.1%.
Screening O=C(COC(=O)c1ccc(-c2ccccc2)cc1)Nc1ccccc1-c1ccccc1 returned ClpP mod inconclusive, PINK1 modulator -1.6%, D2 ag 1.6, Sfp PPTase inh -11.6%, gsp agonist 11.5%, Menin-MLL FL inh -1.2 and gsp antagonist 6.8%.
`CC(=O)Cc1nsc(Nc2cccc(C)c2)n1` gave ClpP mod -2.6%, PINK1 modulator -0.1%, D2 ag -3.4, Sfp PPTase inh -7.3%, gsp agonist -9.4%[15.4 µM], Menin-MLL FL inh 7.6 and gsp antagonist 4.6%.
For CC1=NN(c2ccccc2)C(=O)C1=Cc1ccccc1 the results were ClpP mod 0.8%, PINK1 modulator 1.7%, D2 ag -4.0 and gsp agonist inconclusive.
`CCCc1nc2ccc(C)cn2c1Cc1ccccc1OC` gave ClpP mod 5.0%, PINK1 modulator 4.3% and D2 ag -5.9.
Screening Cn1c(Cc2cccc3ccccc23)nnc1SCc1ccc([N+](=O)[O-])cc1 returned ClpP mod -2.1%, PINK1 modulator -0.6%, D2 ag 1.8, Sfp PPTase inh -3.6%, gsp agonist 13.0%, Menin-MLL FL inh 0.1 and gsp antagonist -1.8%.
For Cc1cc(OCC(=O)N(C)Cc2ccccc2)ccc1Br the results were ClpP mod 1.2%, PINK1 modulator 0.2%, D2 ag -3.7, Sfp PPTase inh 5.1%, gsp agonist -15.1%, Menin-MLL FL inh 0.8 and gsp antagonist -11.1%.
CC(=O)Oc1ccc2occ(/C=N/c3cc(=O)[nH]c(=S)[nH]3)c(=O)c2c1 was read as ClpP mod -0.7%, PINK1 modulator 2.8%, D2 ag 4.8, Sfp PPTase inh -27.7%, gsp agonist 5.8%, Menin-MLL FL inh -1.3 and gsp antagonist -16.1%.
COc1ccc(C2(c3ccc(OC)cc3)NC(=O)N(CC(=O)NC3(C#N)CCCCC3)C2=O)cc1 was read as ClpP mod -0.7%, PINK1 modulator 2.6%, D2 ag 5.1, gsp agonist -7.8% and gsp antagonist -3.7%.
For Cn1c(=O)c(C(=O)c2ccc(S(C)(=O)=O)c(Cl)c2Cl)c(O)c2ccccc21 the results were PINK1 modulator -0.4%, D2 ag 1.0, gsp agonist inconclusive and gsp antagonist -13.1%.
COc1cc(S(=O)(=O)n2nc(C)cc2C)ccc1Cl was read as PINK1 modulator 3.2%, D2 ag 4.4, Sfp PPTase inh 13.7%, gsp agonist -0.5%, Menin-MLL FL inh -0.7 and gsp antagonist -1.5%.
`CCCn1c(=O)c2ccccc2n2c(SCCOc3ccc(OC)cc3)nnc12` gave ClpP mod inconclusive, PINK1 modulator 4.5%[38.3 µM], D2 ag -0.7, Sfp PPTase inh 12.4%, gsp agonist -28.1%, Menin-MLL FL inh 5.5 and gsp antagonist 43.5%[activator].
O=S1(=O)CCN(Cc2cccnc2)CC1 was read as ClpP mod -2.1%, PINK1 modulator -0.4%, D2 ag -5.3 and gsp agonist 10.3%.
`O=C(COc1ccc2ccccc2c1)NNC(=O)c1cccs1` gave ClpP mod -1.1%, PINK1 modulator 0.7%, D2 ag -0.5, Sfp PPTase inh 10.3%, gsp agonist -39.4%[inhibitor], Menin-MLL FL inh 4.2 and gsp antagonist -0.9%.
For CC1(C(=O)Nc2ccccc2Cc2ccccc2)CCN1CCc1ccccc1 (stereo unspecified) the results were ClpP mod 1.1%, PINK1 modulator inconclusive and D2 ag -3.9.
Screening CCN(CC)CCN(C(=O)/C=C/c1cccs1)c1nc2ccc(C)cc2s1 returned ClpP mod -1.6%, PINK1 modulator 3.0%, D2 ag -3.4, Sfp PPTase inh 5.7%, gsp agonist 15.2% and gsp antagonist 4.9%.
Screening Cc1[nH]c2ccccc2c1/C=N/NC(=O)c1cccc(Br)c1 returned PINK1 modulator 2.5%, D2 ag -1.8, Sfp PPTase inh -1.4%, gsp agonist 21.7%, Menin-MLL FL inh 4.6 and gsp antagonist 3.1%.
For NCc1ccccc1 the results were ClpP mod -0.2%, PINK1 modulator -0.1%, D2 ag 4.5, Sfp PPTase inh 16.4%, Menin-MLL FL inh 2.9 and gsp antagonist 4.4%.
For CCOC(=O)c1nnn(-c2ccc(OC)cc2)c1N the results were ClpP mod -5.5%, PINK1 modulator -2.4%, D2 ag -2.4, Sfp PPTase inh 19.5%, gsp agonist 1.3%, Menin-MLL FL inh 5.8 and gsp antagonist -1.8%.
For Cc1ccc(S(=O)(=O)NCc2nc(-c3ccccc3)no2)cc1 the results were ClpP mod -13.3%, PINK1 modulator 0.3%, D2 ag -1.6, Sfp PPTase inh 1.3%, gsp agonist -17.1% and gsp antagonist -1.4%.
`COc1cccc(C(=O)NNC(=O)c2cccc3ccccc23)c1` gave ClpP mod -6.7%, PINK1 modulator -1.0%, D2 ag -2.8, gsp agonist 2.1%[15.4 µM] and gsp antagonist 8.5%.
`CN(C)c1ccc(/C=N/NC(=O)c2ccc(Cn3cc(Br)cn3)o2)cc1` gave ClpP mod -1.7%, PINK1 modulator -0.7%, D2 ag 3.7, Sfp PPTase inh inconclusive, gsp agonist -7.2%[15.4 µM], Menin-MLL FL inh 1.3 and gsp antagonist -1.4%.
Screening CC(Cc1ccccc1)NC(=O)CSc1nc2nc3c(cc2c(=O)n1-c1ccccc1)COC(C)(C)C3 (stereo unspecified) returned ClpP mod -27.6%, PINK1 modulator -0.9%[38.3 µM], D2 ag -2.0, Sfp PPTase inh 10.1%, gsp agonist -37.1%, Menin-MLL FL inh 1.4 and gsp antagonist -3.4%.
CC(=NNC(=S)Nc1cccc(C)c1)c1ccccn1 was read as ClpP mod 1.3%, PINK1 modulator 0.4%, D2 ag -7.0, gsp agonist inconclusive and gsp antagonist -26.6%.
Screening COc1ccc(/C=C/c2nnc(NC(=O)COc3ccc(C)cc3)s2)cc1 returned ClpP mod 15.8µM*, PINK1 modulator 7.2%, D2 ag 0.2, Sfp PPTase inh 9.5%, gsp agonist 0.0%, Menin-MLL FL inh 3.4 and gsp antagonist 8.0%.
Screening Cc1cccc(C(=O)N2CCC(=O)N(C(COCc3ccccc3)Cc3ccccc3)CC2)c1 (stereo unspecified) returned ClpP mod 1.3%, PINK1 modulator -1.0%, D2 ag 0.9, Sfp PPTase inh 10.7%, gsp agonist -25.2%, Menin-MLL FL inh 1.5 and gsp antagonist -13.4%.
`Cc1c(C(=O)N2CCOCC2)c(S(=O)(=O)Nc2ccc(Br)cc2F)c(C)n1C` gave ClpP mod -0.8%, PINK1 modulator 0.3%, D2 ag -5.2, Sfp PPTase inh 16.9%, gsp agonist inconclusive, Menin-MLL FL inh 2.5 and gsp antagonist 7.0%.
CC1(C)CC(=O)C=C(NC2=CC3OC(c4ccccc4)OCC3OC2=O)C1 (stereo unspecified) was read as ClpP mod -0.9%, PINK1 modulator inconclusive, D2 ag -7.9, Sfp PPTase inh 28.2µM*, gsp agonist -4.7%, Menin-MLL FL inh 2.7 and gsp antagonist -11.7%.
For COC(=O)c1cn(NC(=O)c2ccc(F)cc2)c(=O)c2ccccc12 the results were ClpP mod -1.7%, PINK1 modulator -1.0%, D2 ag -3.3, Sfp PPTase inh 4.3%, gsp agonist 8.6%, Menin-MLL FL inh 0.6 and gsp antagonist -11.2%.
COc1ccc(CNC(=O)c2cc(=O)c3c(C)cc(C)cc3o2)cc1 was read as ClpP mod -4.2%, PINK1 modulator 2.3%, D2 ag -1.8, Sfp PPTase inh -0.8%, gsp agonist 19.8%, Menin-MLL FL inh -4.8 and gsp antagonist -4.9%.
For Cc1cccn2c(=O)nc(SCC(=O)N3CCOCC3)nc12 the results were ClpP mod 1.9%, PINK1 modulator 1.5%, D2 ag 0.5, gsp agonist 10.9%[15.4 µM] and gsp antagonist -6.1%.
Screening COc1ccc(NC2CCCN(C(=O)c3cccs3)C2)cc1 (stereo unspecified) returned ClpP mod -1.0%, PINK1 modulator 0.9%, D2 ag 1.6, Sfp PPTase inh 11.4%, gsp agonist 25.4% and gsp antagonist -1.4%.
